Screens from PubChem.
Measles inh – inhibitors of measles virus growth in infected cells. infected Vero cells, GFP fluorescence, 64 h; hits give low values. z-score (test concentration not listed). 0.1% of 33,000 active;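 active = z-score under -3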;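 note: score is relative to mean and SD of the compound wells of a plate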
* = called active by the depositor. The list is partial; count on the stated rates, not on these rows.

SMILES	Measles inh
O=c1c2c3c(sc2nc2ccc(NCc4ccco4)nn12)CCCC3	-0.26
COc1cccc2cc(-c3csc(NC(=O)CCC(=O)N4CCOCC4)n3)c(=O)oc12	-0.27
C=C(C)Cn1c(-c2ccc(N)cc2)nc2ccccc21	0.54
COc1ccc(OC)c(C2C3=C(CCCC3=O)Nc3c2c(=O)n(C)c(=O)n3C)c1 (stereo not drawn)	-0.74
CC(=O)Nc1c(C(=O)C2CC2)oc2ccc(Br)cc12	0.44
COc1cc(C2Nc3ccccc3NC3=C2C(=O)CC(c2ccc(Cl)cc2)C3)cc(Br)c1O (stereo not drawn)	-0.33
CC(=O)NC(NCCC12CC3CC(CC(C3)C1)C2)(C(F)(F)F)C(F)(F)F	-0.73
COc1ccc(C2C(C(=O)Nc3ccccc3F)=C(C)NC3=C2C(=O)CCC3)cc1OC (stereo not drawn)	0.03
CCC(=O)N1CCc2cc(S(=O)(=O)CCC(=O)Nc3ccccc3F)ccc21	0.72
CCOC(=O)c1sc2ncnc(Nc3ccc(Cl)cc3)c2c1C	-1.06

The final 2 entries of the section before lead into the next:
SMILES	Measles inh
CCC(=O)N1CCc2cc(S(=O)(=O)CCC(=O)Nc3ccccc3F)ccc21	0.72
CCOC(=O)c1sc2ncnc(Nc3ccc(Cl)cc3)c2c1C	-1.06
O=[N+]([O-])c1ccc(N2CCN(S(=O)(=O)c3ccccc3)CC2)c(C(F)(F)F)c1	-0.46
CC12CC(NC(=S)N1c1ccccc1)c1ccccc1O2 (stereo not drawn)	-0.23
O=C(Oc1ccc(-c2ccccc2)cc1)c1ccc([N+](=O)[O-])cc1	-0.19
COc1ccc(C(=O)CC(c2ccccc2)C2C(=O)CCCC2=O)cc1 (stereo not drawn)	0.05
CCCCOc1ccc(C2(C)CC(=O)NC2=O)cc1 (stereo not drawn)	-0.87
COc1cc(OC)c(C(=O)CCC(=O)O)cc1OC	0.77
CCC(C)NC(=O)C1CCN(C(=O)N(C)C)CC1 (stereo not drawn)	1.47
COC(=O)C1=C(C)NC(=O)NC1c1ccc(SC)cc1 (stereo not drawn)	-0.95
O=C(Nc1ccc(Br)cc1)c1ccc(F)c(S(=O)(=O)N2CCN(c3ccc(F)cc3)CC2)c1	-0.35
O=C(O)c1ccccc1C(=O)c1cccs1	-1.53
CC1CCCC(NC(=O)CCCCCn2c(=S)[nH]c3ccccc3c2=O)C1C (stereo not drawn)	-0.58
CC(C)CC(NC(=O)C1CCCCC1)C(=O)Nc1cccc(C(F)(F)F)c1 (stereo not drawn)	-0.43
Cc1ccc(C2CC(C(F)(F)F)n3nc(C(=O)N4CCN(c5ccc(F)cc5)CC4)cc3N2)cc1 (stereo not drawn)	-0.64
Cc1ccc(C(=O)Cn2c3ccccc3n3nc(CCC(=O)O)c(=O)nc23)cc1	-0.4
CCCCN1C(=Cc2ccc3ccccc3[n+]2CC)Sc2cc(NC(C)=O)ccc21	-0.54
CC1=C(C(=O)OCCOc2ccccc2)C(c2ccccc2F)C2=C(CC(c3cccs3)CC2=O)N1 (stereo not drawn)	-0.31
CC1=C(C(=O)OC2CCCC2)C(c2ccccc2OC(C)C)NC(=O)N1 (stereo not drawn)	-1
COc1ccc(-c2ccc[nH]2)cc1	1.11
O=C(CSc1nc2ccc(N=Cc3cc(Br)ccc3O)cc2s1)Nc1cccc([N+](=O)[O-])c1	1.95
O=C(c1cccc(Cl)c1)N1CCN(c2ncccn2)CC1	1.02
CC(C)n1c(C(O)c2ccc3c(c2)OCO3)nc2ccccc21 (stereo not drawn)	0.86
COC(=O)C(C)Sc1nc2c(c(=O)[nH]c(=O)n2C)n1CCC(C)C (stereo not drawn)	-0.48
CCc1cc2c(=O)c(Oc3ccccc3)c(C)oc2cc1OC	1.6
O=C(CCCCCn1c(=S)[nH]c2cc3c(cc2c1=O)OCO3)N1CCN(c2ccccc2)CC1	0.01
CCC(=O)N1CCc2cc(Br)cc(S(=O)(=O)CCC(=O)NCc3ccccc3)c21	0.86
COc1ccc2nc(NC(=O)c3ccc([N+](=O)[O-])cc3Cl)sc2c1	-0.28
COc1ccccc1NC(=O)C1CCN(S(=O)(=O)c2ccccc2)CC1	0.81
COc1cccc(C=Nc2ccc(S(=O)(=O)Nc3ccccn3)cc2)c1O	-1.11
CCSCCOC(=O)C1=C(C)NC2=C(C(=O)CC(c3ccccc3Cl)C2)C1c1ccc(F)cc1 (stereo not drawn)	3.93
O=S(=O)(c1ccccc1)c1nc(-c2ccco2)oc1SCc1ccccc1F	0.55

Ordered by value in Measles inh (smallest number first): some entries from above.
SMILES	Measles inh
COC(=O)C1=C(C)NC(=O)NC1c1ccc(SC)cc1 (stereo not drawn)	-0.95
CC1CCCC(NC(=O)CCCCCn2c(=S)[nH]c3ccccc3c2=O)C1C (stereo not drawn)	-0.58
C=C(C)Cn1c(-c2ccc(N)cc2)nc2ccccc21	0.54
CCc1cc2c(=O)c(Oc3ccccc3)c(C)oc2cc1OC	1.6

(more compounds)
SMILES	Measles inh
COCCOC(=O)C1=C(C)NC(=O)N(C(C)=O)C1c1ccc(Cl)cc1 (stereo not drawn)	-1.16
COC(=O)c1ccc(C(=O)OC)c(NC(=O)c2c(-c3ccccc3)noc2C)c1	1.02
O=C(CSc1nccn1-c1ccc(F)cc1)Nc1cc(C(F)(F)F)ccc1Cl	-1.38
CCOC(=O)C1=CN(C)C=C(C(=O)OCC)C1c1ccccc1Cl	0.09
CCn1ncc(Br)c1C(=O)Nc1sc2c(c1C(N)=O)CCCC2	1.45
COc1cccc(-c2nn(C)c3sc(C(=O)N4CCN(c5cc(C)ccc5C)CC4)cc23)c1	-0.35
Cc1ccccc1NC(=O)c1ccc(S(=O)(=O)N2CCCCC2)cc1	-0.05
Cc1cc(C)c(C#N)c(SCSc2ccccc2)n1	1.81
CCOc1ccc(C(=O)Nc2cccc(-c3nc4ccccc4s3)c2)cc1Br	0.39
CCN(CC)c1ccc(Nc2cc(C)c(C#N)c3nc4ccccc4n23)cc1	1.15
COc1ccc(NC(=O)c2ccncc2)c([N+](=O)[O-])c1	0.22
CSc1ccccc1NC(=O)c1c(Br)cnn1C	0.36
O=C(c1ccc2c(=O)n(Cc3ccc(Cl)cc3)c(=S)[nH]c2c1)N1CCOCC1	-0.1
Cc1ccc(NC2=NC3(CCCCC3)N=C(N)N2)cc1C	1.77
O=C(C[n+]1cc(Br)cc(Br)c1)c1ccccc1	-0.4
CCOc1ccc(-n2ccnc2SCC(=O)Nc2ccc(Cl)cc2)cc1	-0.74
COCCCNC(=O)c1cc(Nc2ccc(C(C)C)cc2)nc2ccccc12	1.06
CN(C)CC(=O)N1c2ccccc2CCc2ccc(NC(=O)c3ccc(N)cc3)cc21	0.22
CCCn1c(NC)nc2c1c(=O)n(C)c(=O)n2C	0.01
COc1ccc(CN2CCN(c3ncnc4scc(-c5ccc(F)cc5)c34)CC2)cc1F	0.93
O=C(NCCN1CCOCC1)c1cc(-c2cccc(Br)c2)nc2ccccc12	-0.83
Cc1cccc2nc(-c3cccc(NC(=O)c4cc5ccccc5oc4=O)c3)cn12	-1.06
CCOC(=O)Cn1c(C)c(CC(Cl)(Cl)Cl)c2c1CC(C)(C)CC2=O	-0.04
COC(=O)c1ccc(N=C2SC(C(=O)Nc3ccccc3F)CC(=O)N2C)cc1 (stereo not drawn)	0.41
Cc1cccn2c(=O)c3cc(C(=O)N4CCc5ccccc5C4)sc3nc12	-0.27
COc1cc2[nH]c(=O)n(CCC(=O)N3CCC(Cc4ccccc4)CC3)c(=O)c2cc1OC	-0.9
O=C(CC1(O)C(=O)Nc2ccccc21)c1cc(O)ccc1O (stereo not drawn)	3.14
O=C1C2C(c3ccccc3Cl)OC3(C(=O)c4ccccc4C3=O)C2C(=O)N1c1ccc([N+](=O)[O-])cc1 (stereo not drawn)	-0.93
COc1ccc(C2=NN3C(C2)c2ccccc2OC32CCCCC2)cc1 (stereo not drawn)	-0.95
CCOc1ccc(C2C(=O)N(C3CCCCC3)CC(=O)N2CC2CCCO2)cc1OC (stereo not drawn)	0.56
Cc1[nH]c2ccc(-c3n[nH]c(=S)n3C)cc2c1C	0.28
Cc1ccc(Cn2c(SCC(=O)N3CCCC3)nc3c(sc4ccc([N+](=O)[O-])cc43)c2=O)cc1	-1.5
CCC(=O)Oc1ccc(OC)cc1C1Oc2nc(SC)nnc2-c2ccccc2N1C(=O)CC (stereo not drawn)	0.98
NC(=O)CN1CCOCCN(CC(N)=O)CCOCC1	-0.54
CCCC(=O)N1c2ccccc2-c2nnc(SC)nc2OC1c1ccc(OC)cc1OC (stereo not drawn)	0.77
COc1ccc(-n2c(=O)c3c(C)c(C)sc3n(Cc3cccc(C)c3)c2=O)c(OC)c1	-0.03
Nc1nnc(SCc2ccccc2Cl)s1	-0.81
COc1ccc(CC2(C)OC(c3ccccc3)=NN2C(C)=O)cc1 (stereo not drawn)	1.27
COc1cccc(OC)c1C(=O)Nc1ncc([N+](=O)[O-])s1	-0.19
Cn1cc(C(=O)NCCCN2CCOCC2)c(=O)c2cc(S(=O)(=O)N3CCOCC3)ccc21	0.63
Cc1ccc(S(=O)(=O)N2CCCc3ccccc32)cc1	0.28
CNS(=O)(=O)c1cccc2nsnc12	1.09
COc1cc(-n2c(C)nc3cc(C(=O)N4CCOCC4)ccc32)cc(OC)c1OC	0.57
C=CCSc1nnc2c(n1)OC(c1cccs1)N(C(C)=O)c1ccccc1-2 (stereo not drawn)	0.38
Cc1ccc(S(=O)(=O)Nc2ccc(S(=O)(=O)Nc3nccs3)cc2)cc1	-0.06
CC(C)CCNC(=O)C(=O)Nc1cccc(Cl)c1	-1.75
CCc1nnc(NS(=O)(=O)c2ccc(NC(=O)CN3C(=O)c4ccccc4C3=O)cc2)s1	4.21
CCC(C)n1c(SCC(=O)Nc2cc(C)[nH]n2)nc2ccsc2c1=O (stereo not drawn)	-0.62
Cc1cccc(N2CCN(C(=O)CCC(=O)Nc3ccc4nc(N5CCCCC5)cc(C)c4c3)CC2C)c1 (stereo not drawn)	-0.82
CC(C)Cn1ncc(=O)n(CC(C)C)c1=O	-1.35
Additional compounds
SMILES	Measles inh
CCOC(=O)C1CCN(C(=O)C2CCN(S(=O)(=O)c3cccc4nsnc34)CC2)CC1	-0.07
Cc1cc(C)nc(NS(=O)(=O)c2ccc(NC(=O)CN3C(=O)c4ccccc4C3=O)cc2)n1	1.6
COc1ccc(-n2nc3cc(C)c(NC(=O)COc4ccc(Cl)c(C)c4)cc3n2)cc1	0.16
O=C1Nc2ccccc2C(O)(C(=O)NC2CCCCC2)N1c1ccccc1 (stereo not drawn)	-0.56
COC(=O)C1=CN(CCC23CC4CC(CC(C4)C2)C3)C=C(C(=O)OC)C1c1ccc(Cl)cc1	-0.36
Cc1n[nH]c(C)c1S(=O)(=O)N1CCC(C(=O)NCc2cccs2)CC1	-0.98
COc1ccc(OC)c(NC(=O)COc2ccc(Cl)cc2)c1	-1.19
COc1cccc2sc(=NC(=O)c3ccc(S(=O)(=O)N4CCCc5ccccc54)cc3)n(C)c12	0.8
COc1ccc(C(=O)Nc2nc3ccc4nc(SC)sc4c3s2)cc1	-0.43
COc1ccccc1NC(=O)c1c(C)c(-c2ccc(Cl)cc2)nc2ccccc12	-1.38

For convenience, some entries already given.
SMILES	Measles inh
O=c1c2c3c(sc2nc2ccc(NCc4ccco4)nn12)CCCC3	-0.26
COc1cccc2cc(-c3csc(NC(=O)CCC(=O)N4CCOCC4)n3)c(=O)oc12	-0.27
C=C(C)Cn1c(-c2ccc(N)cc2)nc2ccccc21	0.54
COc1ccc(OC)c(C2C3=C(CCCC3=O)Nc3c2c(=O)n(C)c(=O)n3C)c1 (stereo not drawn)	-0.74
CC(=O)Nc1c(C(=O)C2CC2)oc2ccc(Br)cc12	0.44
COc1cc(C2Nc3ccccc3NC3=C2C(=O)CC(c2ccc(Cl)cc2)C3)cc(Br)c1O (stereo not drawn)	-0.33
CC(=O)NC(NCCC12CC3CC(CC(C3)C1)C2)(C(F)(F)F)C(F)(F)F	-0.73

(cont.)
SMILES	Measles inh
Cc1nc(NCC2CCCO2)c2sc3nc4c(cc3c2n1)COC(C)(C)C4 (stereo not drawn)	-1.6
CNc1nc(SC)nc(Cl)c1Cc1ccc(OCC(C)C)cc1	-0.6
Cc1ccc(NC(=O)CN2c3cccc4cccc(c34)S2(=O)=O)cc1Br	-0.55
Cc1ccccc1OCCn1c(SCC(N)=O)nc2ccccc21	1.48
COC(=O)CNC(c1ccccc1)c1cc(Br)ccc1NC(=O)c1ccccc1Br (stereo not drawn)	-1.04
Cc1nc2sc(C(c3ccco3)N3CCCCC3)c(O)n2n1 (stereo not drawn)	0.1
O=C(Cn1c(=O)oc2cc(Cl)ccc21)N1CCN(c2ccc(F)cc2)CC1	1.62
Cc1cc2nn(-c3ccccc3)nc2cc1NC(=O)COc1ccccc1	-0.13
COc1ccc(-n2c(SCC(=O)N3CCc4ccccc43)nc3c([nH]c4ccccc43)c2=O)cc1	1.88
CN(C)CCSc1nc2ccccc2[nH]1	0.11
CC(=O)Nc1ccc(Oc2cc([N+](=O)[O-])cc3c2C(=O)Nc2ccccc2O3)cc1	0.84
Brc1ccc2ncc(-c3ccc4ccccc4n3)cc2c1	-1.38
O=C(Nc1ccc2c(c1)OCCO2)c1ccc(F)cc1	1.17
CCc1c(C)sc(NC(=O)c2cc(C)on2)c1C#N	-0.34
Cn1c(NC(=O)c2cc(-c3ccc(Br)cc3)nc3ccccc23)cc(=O)n(C)c1=O	-0.89
Cc1cc(NC(=O)c2oc(=O)c3ccccc3c2-c2ccccc2)ccc1Br	-1.77
CCOc1ccc(NC(=O)COc2ccc(C)cc2)c([N+](=O)[O-])c1	-0.47
CC1CN=C(N(Cc2ccccc2Cl)C(=O)Nc2cccc(Cl)c2)S1 (stereo not drawn)	-1.72
CCOc1ccccc1CNC(=O)C1CCN(S(=O)(=O)c2ccc(C)cc2)CC1	-0.63
Brc1ccccc1CN1CCN(C2CCN(Cc3ccccc3)CC2)CC1	-1.14
CCC1Oc2ccc(C)cc2N(CC(=O)NCCCN2CCN(c3ccccc3F)CC2)C1=O (stereo not drawn)	-0.32
CC1CCc2c(sc3nc(-c4ccco4)oc(=O)c23)C1 (stereo not drawn)	-0.5
Clc1ccccc1CNCc1cn2c(-c3ccc(Br)cc3)nnc2s1	-0.51
